VDR inhibitor = blocks the human vitamin D receptor; Potency, µM, without a hit: max response, negative = inhibition, most hits filed as inhibitors; VDR-SRC2-3 peptide fluorescence polarization, 2 h; actives 0.93% (n = 400,000); active = well fitted inhibition curve with a large enough effect; inconclusive = small, poorly fitted or top-dose-only effect, or another doubt; inactive = no such curve, though single readings can be large or run the other way; also: series mostly up to about 120 µM
Target sequence (P11473 whole entry, looked up): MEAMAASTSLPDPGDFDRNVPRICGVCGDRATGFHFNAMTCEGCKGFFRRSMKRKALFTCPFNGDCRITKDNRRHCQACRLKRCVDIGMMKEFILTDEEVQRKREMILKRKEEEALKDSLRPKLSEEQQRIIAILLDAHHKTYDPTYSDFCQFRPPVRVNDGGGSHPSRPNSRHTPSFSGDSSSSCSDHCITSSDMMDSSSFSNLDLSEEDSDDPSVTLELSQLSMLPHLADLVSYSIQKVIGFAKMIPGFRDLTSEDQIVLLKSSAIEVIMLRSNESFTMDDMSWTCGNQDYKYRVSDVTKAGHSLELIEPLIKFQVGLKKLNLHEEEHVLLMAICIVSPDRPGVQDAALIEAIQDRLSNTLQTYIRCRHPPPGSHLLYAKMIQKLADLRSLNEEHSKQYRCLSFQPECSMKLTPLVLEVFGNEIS
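Measured by FP: displacement of SRC2-3 coactivator peptide from VDR by library compounds, following a two-hour ambient incubation.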
Starred values were filed as active, the others as inactive; & = joins results of further samples. % is scaled to controls: 0 for no effect and ±100 for the full control effect; potency is read from the fitted curve at half-maximal effect.

COc1ccccc1C(=O)N1CC(=O)Nc2ccc(C)cc2C1c1ccc(F)cc1 (centres undefined) was read as VDR inhibitor 6%.
`CN(C)C1=NC[C@H](Cc2ccccc2)N1CCC1CCCC1` gave VDR inhibitor inconclusive.
Screening CC(C)=CC(=O)OCC(=O)Nc1ccc(Cl)cn1 returned VDR inhibitor -8%.
Screening N=C1S/C(=C\c2ccco2)C(=O)N1c1ccc2c(c1)OCO2 returned VDR inhibitor -13%.
For O=C(c1cccc(F)c1)N1CCC2(CC1)CN(c1ccccc1)C2 the results were VDR inhibitor -11%.
`COc1ccccc1N1CCN(C(c2cccs2)c2nnnn2C2CCCC2)CC1` (centres undefined) gave VDR inhibitor -1%.
CC(=O)Cn1ncc(Br)c(Br)c1=O was read as VDR inhibitor -18%.
`COCCSc1nnc(NC(=O)C2CCN(C(=O)c3ccco3)CC2)s1` gave VDR inhibitor -7%.
`Oc1c(C=C2N=c3ccccc3=N2)sc(=S)n1-c1ccccc1` gave VDR inhibitor -15%.
`COc1ccc(S(=O)(=O)N2CCCCCC2)cc1NC(=O)c1ccccc1` gave VDR inhibitor -12%.
CCN(CC)CCCNc1cc(-c2ccccc2)nc(C)n1 was read as VDR inhibitor 3%.
For O=C(Cn1c(=O)n(Cc2ccc3c(c2)OCO3)c(=O)c2oc3ccccc3c21)Nc1ccccc1F the results were VDR inhibitor 9%.
For COCCNC(=O)C(=O)NCC(c1ccc2c(c1)OCO2)N1CCN(c2ccc(F)cc2)CC1 (centres undefined) the results were VDR inhibitor 2%.
Screening COc1cc(Cl)ccc1OCc1cc(C(=O)N(C)C2CCOC2)no1 (centres undefined) returned VDR inhibitor -12%.
Screening COc1ccc(NC(=O)C(=O)Nc2cccc3ccccc23)c(OC)c1 returned VDR inhibitor -9%.
CC1CCCN(C(=O)NC2CC(=O)N(c3ccc4c(c3)OCCO4)C2)C1 (centres undefined) was read as VDR inhibitor -6%.
Cc1ccc(C(=S)N2CCN(Cc3ccccc3)CC2)s1 was read as VDR inhibitor inconclusive.
`Cc1nn(C(=O)N2CCOCC2)c(C)c1CN1C(=O)c2ccccc2C1=O` gave VDR inhibitor 6%.
For CC(=O)Nc1ccc(CN2CCCC(C(=O)c3cccc(C(F)(F)F)c3)C2)cc1 (centres undefined) the results were VDR inhibitor 1%.
For O=C(NCCCN1CCCC1=O)C1CCN(S(=O)(=O)c2cccc(Cl)c2Cl)CC1 the results were VDR inhibitor 2%.
Screening COc1ccc(S(=O)(=O)N2CCOCC2)cc1NC(=O)c1cc2c(s1)CCCC2 returned VDR inhibitor -12%.
Screening COc1cccc(NC(=S)NCc2cccs2)c1 returned VDR inhibitor 4%.
Cc1ccc(OCC(=O)N(C)CC(=O)Nc2ccccc2Cl)c([N+](=O)[O-])n1 was read as VDR inhibitor 3%.
`CC(NS(C)(=O)=O)C(c1cccs1)N1CCN(c2ccccc2F)CC1` (centres undefined) gave VDR inhibitor 14%.
Cc1cccc(NC(=O)CN2C(=O)S/C(=C\c3ccc(O)c([N+](=O)[O-])c3)C2=O)c1 was read as VDR inhibitor -8%.
Cc1ccc(S(=O)c2ccc(C)cc2)cc1 was read as VDR inhibitor 4%.
For CCCCC(=O)N1CCCC(C)C1 (centres undefined) the results were VDR inhibitor -13%.
Screening Cc1ccc2c(CN(C)Cc3cccc(F)c3)cc(=O)oc2c1 returned VDR inhibitor -9%.
`CCN(CC)CCOC(=O)C(Cc1cccc2ccccc12)CC1CCCO1` (centres undefined) gave VDR inhibitor 10%&-9%.
CCCC[C@@H]1C[C@H]1[C@@H](NC(=O)c1ccco1)c1ccc(Cl)cc1 was read as VDR inhibitor -3%.
COC(=O)Cn1cnc2sc(C)c(S(=O)(=O)N3CCC(C)CC3)c2c1=O was read as VDR inhibitor -5%.
Screening Cc1c(C(=O)NCCCn2ccnc2)oc2ccccc12 returned VDR inhibitor 16%.
CCC(C)c1c(O)nc(SCC(=O)Nc2ccccc2)[nH]c1=O (centres undefined) was read as VDR inhibitor 5%.
For CC(C)CCN1CC(O)=C(c2nc3ccccc3[nH]2)C1=N the results were VDR inhibitor -21%.
`CCC1CCCCN1CCCNC(=O)Cn1ncn2nc(-c3ccc(OC)cc3)cc2c1=O` (centres undefined) gave VDR inhibitor 5%.
`CC1CCN(C(=O)Cn2nnc(-c3ccc([N+](=O)[O-])cc3)n2)CC1` gave VDR inhibitor -2%.
Screening O=c1c(Cc2c(F)cccc2Cl)c(O)ccn1Cc1ccc(F)cc1 returned VDR inhibitor 8%.
`O=C1c2ccccc2NC(c2ccc3c(c2)OCO3)N1Cc1ccco1` (centres undefined) gave VDR inhibitor inconclusive.
For CS(=O)(=O)Nc1ccc(C2=NN(C(=O)c3ccco3)C(c3cccc(F)c3)C2)cc1 (centres undefined) the results were VDR inhibitor -5%.
Screening COc1cc(CNCCO)cc(Br)c1OCc1ccccc1Cl returned VDR inhibitor -11%.
O=c1c2ccsc2ncn1Cc1ccccc1F was read as VDR inhibitor -6%.
Screening CCCn1nnnc1SCC(=O)N1CCCCC1 returned VDR inhibitor 3%.
Screening COc1ccc(C2=CSC3=NNC4(CCCCC4)NN23)cc1 returned VDR inhibitor -26%.
`O=C(Cn1nnnc1-c1ccccc1F)Nc1ccc(F)c(F)c1` gave VDR inhibitor 8%.
CCOC(=O)c1ccccc1NS(=O)(=O)c1c(-c2ccc(C)cc2)csc1C(=O)OC was read as VDR inhibitor 17%.
S=C(Nc1ccccc1)Nc1ccc(OCc2ccccc2)cc1 was read as VDR inhibitor -10%.
For COc1cccc(OCCNC(=O)c2ccc(C)cc2)c1 the results were VDR inhibitor -11%.
For CCS(=O)(=O)NCCNc1ccc([N+](=O)[O-])cc1 the results were VDR inhibitor -9%.
Screening COCCn1c(SCC(=O)Nc2cc(C)on2)nnc1-c1c[nH]c2ccccc12 returned VDR inhibitor 11%.
Screening CC(=O)Oc1ccc(OC(C)=O)c2c1C1C=CC2CC1 returned VDR inhibitor -22%.
Cc1ccc(Cl)cc1NC(=O)CN1C=NS(=O)(=O)c2ccccc21 was read as VDR inhibitor 1%.
O=C(CSc1nc(-c2ccccc2)cc(=O)[nH]1)Nc1ccccc1F was read as VDR inhibitor 7%&10%.
`CCOC(=O)N1CCN(C(=O)c2noc3c2COc2ccccc2-3)CC1` gave VDR inhibitor -2%.
For COc1ccccc1N(C)S(=O)(=O)c1ccc(C(=O)Nc2nc(C)cs2)cc1 the results were VDR inhibitor -9%.
For N#Cc1c(N)n[nH]c1CCCN the results were VDR inhibitor -6%.
O=C(NCC1(c2ccccc2)CCCC1)c1ccc(Br)o1 was read as VDR inhibitor 3%.
`CCOc1ccc(NC(=S)NCc2nc3ccccc3[nH]2)cc1` gave VDR inhibitor -15%.
Screening CCc1nc2sc3ccccc3c(=O)c2c(=O)n1CCOC returned VDR inhibitor -7%.
For O=C(NCCN1CCOCC1)c1cc(-c2ccc(Br)cc2)on1 the results were VDR inhibitor 16%.
For O=S(=O)(c1ccccc1F)N1CCN(c2nc3ccccc3s2)CC1 the results were VDR inhibitor 18%.
Screening Cc1cc(C)c(NC(=O)Cc2ccc(-n3cccc3)cc2)c(C)c1 returned VDR inhibitor 9%.
Screening O=C(CN1CCN(Cc2ccccc2)CC1)N1CCCc2c1c(=O)oc1ccc(O)cc21 returned VDR inhibitor 1%.
`CCOc1ccc(CCNC(=O)CCSCc2ccc(Cl)cc2)cc1OCC` gave VDR inhibitor 14%.
For Cc1ccc(Cn2nc(C)c3cc(C(=O)OCC(N)=O)sc32)cc1 the results were VDR inhibitor -14%.
`Nc1ncnc2c1ncn2[C@@H]1O[C@H](COP(=O)(O)O)[C@@H](O)[C@@H]1O` gave VDR inhibitor 3%.
`CC1=C(C(=O)OC(C)C)C(c2cccs2)N2C(=O)C(C)SC2=N1` (centres undefined) gave VDR inhibitor -13%.
O=C(c1ccco1)N(c1ccccn1)c1ccccn1 was read as VDR inhibitor -7%.
CCN(C(=O)c1cc2c(Cl)nc3ccccc3c2s1)c1cccc(Cl)c1 was read as VDR inhibitor -1%.
Screening CN(C)S(=O)(=O)N1CCN(S(=O)(=O)N2CCOCC2)CC1 returned VDR inhibitor 0%.
For Cc1ccc(C(=O)NCC(=O)N2CCN(c3ccccc3)CC2)cc1 the results were VDR inhibitor -4%.
COCCCNC(=O)C1CCC(=O)N(c2ccc3c(c2)OCO3)C1c1ccc(OC)cc1 (centres undefined) was read as VDR inhibitor -4%.
`CC(=O)Nc1cccc(NC(=O)CSc2ccc3nnc(CCNC(=O)c4ccccc4)n3n2)c1` gave VDR inhibitor -8%.
For COc1cccc(-c2nc(CS(=O)(=O)CC(=O)NC3CCC(C)CC3)c(C)o2)c1 (centres undefined) the results were VDR inhibitor inconclusive.
`Cc1cc(NS(=O)(=O)c2ccc(NC(=O)C(C)Oc3ccc4c(C)cc(=O)oc4c3)cc2)no1` (centres undefined) gave VDR inhibitor -14%.
Screening CCOC(=O)C1CCN(C(=O)Cn2c(=O)cc(C)c3c(C)nn(C)c32)CC1 returned VDR inhibitor 14%.
For COc1c2c(c3c(c1OC)c(=O)c1ccccc1n3C)OCO2 the results were VDR inhibitor -11%.
For Cc1ccc(Cn2cc(/C=C(/C#N)C(=O)Nc3cccc(Cl)c3)c3ccccc32)cc1 the results were VDR inhibitor -2%.
Screening O=C(Cc1ccc(NC2=NC3CS(=O)(=O)CC3S2)cc1)NCc1ccccc1Cl (centres undefined) returned VDR inhibitor 14%.
For Cc1ccc(C(=O)N2CCCC(CCC(=O)N3CCN(c4ccccn4)CC3)C2)cc1 (centres undefined) the results were VDR inhibitor -17%.
CC(C)c1ccc(CNc2ccc(N3CCOCC3)cc2)cc1 was read as VDR inhibitor -28%.
For COc1ccc(N2CCN(c3oc(-c4ccccc4C)nc3S(=O)(=O)c3ccccc3)CC2)cc1 the results were VDR inhibitor 7%.
Cn1ncc(N=Cc2ccccc2)c1C(=O)Nc1cccc(Cl)c1 was read as VDR inhibitor 4%.
For COc1ccc2c(c1)C(=O)[C@H](OC(=O)NCc1ccco1)[C@@H](c1ccc(OC)c(Br)c1)O2 the results were VDR inhibitor 56µM*.
`COC(=O)Cc1ccc(O)c(N)c1` gave VDR inhibitor inconclusive.

The list goes on (five carried over from the part before).
CC(C)c1ccc(CNc2ccc(N3CCOCC3)cc2)cc1 was read as VDR inhibitor -28%.
For COc1ccc(N2CCN(c3oc(-c4ccccc4C)nc3S(=O)(=O)c3ccccc3)CC2)cc1 the results were VDR inhibitor 7%.
Cn1ncc(N=Cc2ccccc2)c1C(=O)Nc1cccc(Cl)c1 was read as VDR inhibitor 4%.
For COc1ccc2c(c1)C(=O)[C@H](OC(=O)NCc1ccco1)[C@@H](c1ccc(OC)c(Br)c1)O2 the results were VDR inhibitor 56µM*.
`COC(=O)Cc1ccc(O)c(N)c1` gave VDR inhibitor inconclusive.
Screening CC(=O)C1=C(C)NC(=O)NC1c1ccc(OC2CCCC2)cc1 (centres undefined) returned VDR inhibitor 0%.
`O=C(NCCCNC(=O)c1ccccn1)c1ccccn1` gave VDR inhibitor -9%.
`CCNC(C(=O)c1c[nH]c2c(CC)cccc12)c1ccccc1` (centres undefined) gave VDR inhibitor -11%.
For Cc1cc(F)ccc1NC(=O)c1cc(S(=O)(=O)N2CCCC2)cn1C the results were VDR inhibitor -12%.
Screening O=C(NC1CCN(Cc2ccccc2)CC1)C1CCN(S(=O)(=O)c2cccc3cccnc23)CC1 returned VDR inhibitor -10%.
For CCSc1nnc(Cc2cc(=O)[nH]c(=O)[nH]2)n1-c1cccc(C)c1 the results were VDR inhibitor -25%.
`Cc1nc(NC(C)C)c2cnn(CCc3ccccc3)c2n1` gave VDR inhibitor -3%.
O=C(COc1ccc2c(c1)OCO2)Nc1nccs1 was read as VDR inhibitor -2%.
Screening O=C(c1cccnc1)n1nc(-c2ccco2)nc1NCc1cccs1 returned VDR inhibitor -8%.
For COc1cc(NC(=O)c2ccc(CNc3c(N4CCOCC4)c(=O)c3=O)cc2)cc(OC)c1 the results were VDR inhibitor -15%.
Screening CC(C)c1ccc(NC(=O)[C@H]2CSCN2C(=O)[C@@H]2CCC(=O)N2)cc1 returned VDR inhibitor 11%.
Screening O=C(CSc1nc(C(F)(F)F)cc(=O)[nH]1)N1CCCCCC1 returned VDR inhibitor -13%.

5 consecutive entries already listed, for reference:
Cc1cccc(NC(=O)CN2C(=O)S/C(=C\c3ccc(O)c([N+](=O)[O-])c3)C2=O)c1 was read as VDR inhibitor -8%.
Cc1ccc(S(=O)c2ccc(C)cc2)cc1 was read as VDR inhibitor 4%.
For CCCCC(=O)N1CCCC(C)C1 (centres undefined) the results were VDR inhibitor -13%.
Screening Cc1ccc2c(CN(C)Cc3cccc(F)c3)cc(=O)oc2c1 returned VDR inhibitor -9%.
`CCN(CC)CCOC(=O)C(Cc1cccc2ccccc12)CC1CCCO1` (centres undefined) gave VDR inhibitor 10%&-9%.

(more compounds)
COc1ccc(C(=O)N2N=C(c3cccc(OC)c3)CC2(O)C(F)(F)F)cc1 (centres undefined) was read as VDR inhibitor 2%.
`COc1ccccc1CO/N=C/NC(=O)c1c(OC)ccnc1Oc1ccc(F)cc1` gave VDR inhibitor 0%.
For Clc1cc(-c2ccccc2)nc(-c2ccccc2)n1 the results were VDR inhibitor -17%.
Screening Cc1cc(C)n2nc(SCC(=O)N(C)c3ccccc3)nc2n1 returned VDR inhibitor 3%.
Screening Cc1ccc(NC(=O)Nc2nnc(N3CCCC3)s2)cc1 returned VDR inhibitor 16%.
CCOC(=O)CN1C(=O)C(=O)N(Cc2ccccc2)C1=O was read as VDR inhibitor -2%.
`CC(SC1=NCCS1)C(=O)Nc1nnc(-c2ccc(F)cc2)s1` (centres undefined) gave VDR inhibitor inconclusive.
`CCC(C)NC(=O)C1CCN(c2nc(C)cc(C)n2)CC1` (centres undefined) gave VDR inhibitor -5%.
`O=C(NCc1ccc(OC(F)(F)F)cc1)c1cccc2c1C(=O)c1ccc(N3CCCCC3)cc1S2(=O)=O` gave VDR inhibitor 1%.
`Cc1ccc(NC(=O)COC(=O)COc2ccc(Cl)cc2C)c([N+](=O)[O-])c1` gave VDR inhibitor -13%.

Bioassay records from PubChem.

An excerpt. The share of hits here may be higher or lower than overall.
